Screens deposited in PubChem by several laboratories.
Calb FLC: C. albicans growth modulation with fluconazole | C. albicans CaCi-2 (fluconazole-resistant clinical isolate) + fluconazole, Alamar Blue growth, 48 h | growth inhibition, % (concentration not given with the values) | 300,000 tested, 0.57% active | AID 1979;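 active means most replicates above 75%; inconclusive means exactly half above 75%; inactive means most below 75%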;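 further: all wells also contain fluconazole at 8 µg/ml as a sub-toxic cotreatment; 0% = median of DMSO wells and 100% = median of geldanamycin control wells; wells of about 8 µL received 7.5 nL stock; the first replicate is given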
LANA-H2A inh: blocks KSHV LANA binding to histone H2A/H2B | Q9QR71 | cell-free LANA-H2A/H2B peptide, fluorescence polarization | inhibition, % (test concentration not listed) | 320,000 tested, 0.6% active; in the data active means inhibition mostly above about 10%, no sharp cut-off; inactive means mostly below about 6.7%;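 further: stock transfer was 7.5 nL into about 10 µL; 0% = median of vehicle wells and 100% = median of positive control wells; one replicate is shown; the record names a cut of 25% in any replicate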
Beta cell apopt: beta cell apoptosis inhibition | INS-1E cytokine-induced death, ATP luminescence, 48 h; percent of positive-control rescue, neutral wells zero | protection from apoptosis, % (no concentration beside the values) | 300,000 tested, 0.8% active | AID 435005;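 active means all replicates at 75% or more, or half of them and the mean; inconclusive means half reach 75% but not the mean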;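 further: 0% = cytokine-treated negative control wells and 100% = positive control rescue; higher means more ATP so stronger rescue from cytokine killing; wells of about 40 µL received 100 nL stock; the first replicate is given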
T cruzi inh: T. cruzi replication inhibition; inhibition, % (no concentration beside the values); T. cruzi beta-gal in NIH3T3, luminescence, 90 h; AID 1885; 300,000 tested, 1.4% active;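 active means mean inhibition across valid replicates above about 55%, limit read from the data; inconclusive means mean below that limit but half or more replicates reach it; inactive means mean below it, under half of replicates reach it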;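 further: signal also drops with host cell toxicity which is not excluded here; 0% = plate median of DMSO wells and 100% = zero luminescence signal; higher percent means less beta-gal luminescence so fewer parasites; stock transfer was 50 nL into about 50 µL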
A1 inh: inhibitors of the anti-apoptotic protein A1, read as caspase activation | MEF A1-2A-BIM cells, Caspase-Glo 3/7 luminescence, 3 h; percent of clofoctol response, vehicle zero | caspase activation, % (test concentration not listed) | 330,000 tested, 0.066% active;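 active means over half of replicate activation scores above 10%, or exactly half above 10 with the replicate mean above 10; inconclusive means replicate mean below 10 yet half the replicates above 10; inactive means over half of replicates below 10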;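 further: wells of about 30 µL received 50 nL stock; many hits fall short of the cut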
Vif TR-FRET: inhibitors of Vif binding to APOBEC3G peptide, primary screen, biochemical, TR-FRET, GST-Vif 1-94, biotin-A3G peptide, dose response retest (AID 1117319). TR-FRET GST-Vif / biotin-A3G peptide binding; higher % means a stronger effect; test concentration not given here; strong numbers were not always called active. 260,000 tested, 0.57% active. inhibition, %, or IC50 in µM where a hit was titrated;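 active means above the screen mean plus three standard deviations and confirmed in dose response; inconclusive means results disagree or hit not tested in dose response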;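 further: Vif residues 1-94 fused to GST binding biotinylated APOBEC3G peptide 110-148; 0% = full assay without inhibitor and 100% = GST in place of GST-Vif; retest series ran down from 100 µM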
AF4-AF9 inh: MLL-AF4/AF9 protein interaction inhibition. P42568. AlphaScreen, biotin-AF4 peptide binding to FLAG-AF9. inhibition, % at 10 µM. 350,000 tested, 0.47% active;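 active means every replicate reaching a set inhibition limit, whatever the replicate mean, cut at about 25% in these data; inconclusive means mean inhibition reaches that limit but some replicates miss it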;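 further: 0% = plate neutral control median and 100% = total signal loss; the record names both 10 and 1 µM as test concentration; the first replicate is given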
Target sequence (P42568 whole entry, looked up): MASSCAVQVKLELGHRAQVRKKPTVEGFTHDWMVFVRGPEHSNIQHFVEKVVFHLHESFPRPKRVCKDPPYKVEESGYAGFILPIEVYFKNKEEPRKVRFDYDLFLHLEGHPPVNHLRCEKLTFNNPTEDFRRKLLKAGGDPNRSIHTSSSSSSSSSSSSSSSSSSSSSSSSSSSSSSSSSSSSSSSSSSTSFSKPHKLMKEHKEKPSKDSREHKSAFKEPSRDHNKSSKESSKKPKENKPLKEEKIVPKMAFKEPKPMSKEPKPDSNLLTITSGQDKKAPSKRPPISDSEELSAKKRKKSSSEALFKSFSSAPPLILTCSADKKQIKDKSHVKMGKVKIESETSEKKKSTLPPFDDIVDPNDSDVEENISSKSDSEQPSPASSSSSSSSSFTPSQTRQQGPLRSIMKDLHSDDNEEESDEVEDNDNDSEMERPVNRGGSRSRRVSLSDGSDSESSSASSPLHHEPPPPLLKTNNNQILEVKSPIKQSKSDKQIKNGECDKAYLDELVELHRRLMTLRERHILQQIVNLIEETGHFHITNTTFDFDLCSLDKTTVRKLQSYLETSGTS
RanGTP-Imp inh: inhibitors of RanGTP-importin-beta interaction, primary screen, biochemical, FRET, CFP-Ran, YFP-importin-beta, homogeneous | 300,000 tested, 1.1% active | cell-free CFP-Ran/YFP-importin-beta FRET ratio | inhibition, % (test concentration not listed);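 active means most replicates above 15%; inconclusive means exactly half above 15%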;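 further: 0% = DMSO wells and 100% = Ran loaded with GDP instead of GTP; wells of about 40 µL received 100 nL stock; the first replicate is given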
Active calls of the source: *; u = inconclusive; x = no result given; & = joins results of further samples.

| SMILES | Calb FLC | LANA-H2A inh | Beta cell apopt | T cruzi inh | A1 inh | Vif TR-FRET | AF4-AF9 inh | RanGTP-Imp inh |
| --- | --- | --- | --- | --- | --- | --- | --- | --- |
| Cc1ccc(N2C(=O)C3CCCN3C2=S)cc1Cl (stereo not drawn) | -6 | 1.9 | -11 | 0 | 0.9 | 0% | -2.8 | 0.8 |
| CCOC(=O)c1[nH]c2ccc(Cl)cc2c1NC(=O)c1nonc1C | -5 | -6.1 | -7 | 12 | 0.7 | u | x | 5.5 |
| Cc1cccc(N2CC(C(=O)NC3CCCCCC3)CC2=O)c1C (stereo not drawn) | x | -3.8 | 2 | x | 0.6 | x | -0.7 | x |
| COc1ccc(C(=O)NC(=S)Nc2nc(C)c(C(=O)N(C)C)s2)cc1 | -5 | -2.7 | -5 | -5 | -0.7 | 12% | x | -2.4 |
| CCN(CC)CCNC(=O)CN1C(=O)COc2ccc(S(=O)(=O)N3CCOCC3)cc21 | -4 | x | x | 2 | x | x | -3.3 | 3.1 |
| NC(=O)COC(=O)c1c2c(nc3ccccc13)CCCC2 | 2 | 0.3 | -4 | -7 | -3.5 | u | 0.1 | 5.5 |
| COC(=O)[C@@H]1C[C@H]2CC[C@H](O)C[C@H]2N1Cc1ccccc1OS(=O)(=O)c1ccc(C)cc1 | -8 | -0.7 | 0 | 1 | -0.6 | x | -4.7 | -0.8 |
| Nc1c(C(=O)NCc2ccccc2)c2nc3ccccc3nc2n1-c1ccc2c(c1)OCO2 | 5 | -1.0 | x | 41 | -0.6 | 0% | x | 35* |
| Cc1ccc2[nH]c3c(c2c1)CN(C(=O)CN1CCCCC1)CC3 | -6 | 1.5 | -8 | 16 | 0.2 | -10% | 4.2 | -14 |
| CSc1ccc(/C=C/C(=O)OCC(=O)N2CCc3ccccc32)cc1 | x | 1.7 | -2 | x | 0.4 | -15% | -0.6 | x |
| COc1ccc(COCC(O)CN2CCOCC2)cc1OC (stereo not drawn) | -5 | 5.6 | -1 | 6 | 0.1 | -1% | x | 2.9 |
| Cc1ccc(-c2nnn(CC(=O)Nc3ccc(S(=O)(=O)N4CCC(C)CC4)cc3)n2)cc1 | -2 | 3.8 | 50 | 32 | 1.9 | 1% | x | -2.7 |
| CCOC(=O)c1c(NC(=O)C(=O)N/N=C/c2ccc(OCC)cc2)sc2c1CCCCC2 | 4 | 4.4 | -3 | -13 | -0.2 | -2% | 1.4 | -2.4 |
| S=c1[nH]nc(-c2ccc3ccccc3n2)n1-c1ccccc1 | 0 | -3.6 | 1 | -8 | 0.1 | x | -9.8 | -0.2 |
| Cc1ccccc1NC(=O)c1ccc([N+](=O)[O-])o1 | 19 | 2.5 | -4 | 36 | 0.7 | x | -0.6 | 4.4 |
| Cc1ccc(C(=O)NNC(=O)Cc2csc(-c3csc(C)n3)n2)cc1 | -9 | -3.0 | -2 | -2 | -0.1 | -9% | 0.8 | -4.3 |
| Cc1ccc(C2=CC(c3ccccc3)n3ncnc3N2)cc1 (stereo not drawn) | 32 | -1.3 | 1 | -10 | 0.1 | x | 1.6 | -5.4 |
| O=C1NC(=S)N/C1=C\c1ccc(Oc2ccc(C(F)(F)F)cc2[N+](=O)[O-])c(Cl)c1 | 2 | 0.7 | -11 | 6 | -0.4 | -1% | -38 | -0.9 |
| COc1ccc(C2C(C#N)=C(N)Oc3n[nH]c(C)c32)cc1CN1CCN(c2ccc(F)cc2)CC1 (stereo not drawn) | -13 | -1.3 | -4 | 13 | -0.1 | 3%&-8% | x | 5.4 |
| COc1cccc(-c2nnc(N(C)C(=O)C3CCOC3)s2)c1 (stereo not drawn) | 0 | 1.1 | 1 | 0 | -3.4 | -2% | x | -5.0 |
| Cc1ccc([N+](=O)[O-])cc1NC(=O)/C=C/C(=O)O | 0 | -2.8 | -4 | -2 | 0.1 | 29% | 1.5 | 2.4 |
| COc1ccc(CCNC(=O)[C@H](C)N2C(=O)N3CCc4c([nH]c5ccccc45)[C@@]3(C)C2=O)cc1 | -1 | -5.9 | -3 | 62* | -0.3 | x | -0.4 | 3.0 |
| O=C(C=C1CCN(c2ncc(C(F)(F)F)cc2Cl)CC1)NNC(=O)Nc1ccccc1 | 8 | -1.8 | -7 | -1 | 1.0 | 7% | x | -0.9 |
| O=C(CSCCO)Nc1cccc(C(F)(F)F)c1 | -7 | 1.0 | -2 | -11 | 1.7 | 0% | x | u |

As entered above:
Cc1ccccc1NC(=O)c1ccc([N+](=O)[O-])o1 – Calb FLC: 19
S=c1[nH]nc(-c2ccc3ccccc3n2)n1-c1ccccc1 – AF4-AF9 inh: -9.8

(further entries)
| SMILES | Calb FLC | LANA-H2A inh | Beta cell apopt | T cruzi inh | A1 inh | Vif TR-FRET | AF4-AF9 inh | RanGTP-Imp inh |
| --- | --- | --- | --- | --- | --- | --- | --- | --- |
| CCn1nc(C)c(NC(=O)c2cnn3c(C(F)F)cc(-c4ccccc4)nc23)c1C | 11 | -5.2 | 10 | 19 | 0.4 | 0% | -1.6 | -0.6 |
| O=C(NCCOc1ccccc1F)c1ccc2c(=O)n3c(nc2c1)CCC3 | x | -2.4 | -4 | x | -2.4 | -14% | -3.7 | x |
| C/C(CC(=O)Nc1ccccn1)=N\NC(=O)c1ccccc1 | 5 | -3.3 | 6 | -20 | -0.6 | x | x | 4.9 |
| CCCCCCn1c(N2CCN(c3ccccc3)CC2)nc2c1c(=O)n(C)c(=O)n2C | 9 | 1.4 | 13 | 40 | -0.5 | 3%&3% | x | 0.9 |
| Cc1cccc(NC(=O)N2C3CCCC2CC(NC(=O)C2CC2)C3)c1 (stereo not drawn) | 10 | -0.4 | -1 | -15 | 0.8 | x | 0.4 | 0.6 |
| Cn1nnnc1SCC(=O)Nc1ccc(N2CCOCC2)cc1 | 3 | -3.5 | 10 | -10 | -0.3 | 20% | 4.5 | -3.0 |
| Cc1cccc(C)c1OCc1cc(C(=O)NCC2CC2)no1 | -1 | 2.0 | -8 | 6 | 0.4 | x | -2.9 | -5.5 |
| CCOc1ccccc1NC(=O)CN1CCC(C(=O)c2ccc(F)cc2)CC1 | -4 | -3.7 | 10 | 27 | -0.3 | x | -0.3 | -2.4 |
| O=C(NN1C(=O)C2C3C=CC(O3)C2C1=O)c1cccc(Br)c1 (stereo not drawn) | 8 | 2.8 | -26 | -10 | 0.3 | 15% | -17 | u |
| Cc1ccc(S(=O)(=O)N2CCCC2CO)cc1 (stereo not drawn) | -3 | -1.5 | 0 | 1 | -0.3 | 27% | 2.7 | -0.8 |
| CC(=O)N1CCc2cc(S(=O)(=O)Nc3cccc(C(F)(F)F)c3)ccc21 | 1 | 0.0 | 20 | 11 | -1.1 | 9% | x | -0.9 |
| O=C(CN1c2cccc3cccc(c23)S1(=O)=O)NCc1ccc(F)cc1 | x | -2.6 | -5 | x | 0.4 | 7% | -2.1 | x |
| Cc1ccc(SCCNC(=S)Nc2ccc(C)c(C)c2)cc1 | -22 | -2.0 | 5 | -12 | 0.1 | 10% | x | -3.0 |
| CCCCN1C(=O)C2NN=C(C(=O)OC)C2C1=O (stereo not drawn) | 3 | 5.0 | 1 | -5 | -0.3 | -1% | x | -3.0 |
| O=C(OCCOc1ccccc1)c1n[nH]c2ccccc12 | -1 | 16 | 1 | -16 | -0.1 | 29% | 8.9 | 0.3 |
| O=C(Nc1nc2ccccc2n1CCN1CCCCC1)C1CCCCC1 | -3 | 3.1 | x | -6 | 0.5 | 6% | x | -4.5 |
| CCOc1ccc(Cl)cc1C1=CC(=O)C[C@H](c2ccc(OC)cc2)C1 | x | -0.9 | 14 | x | 1.3 | x | 2.0 | x |
| COc1ccc(N2CC(C(=O)Nc3nccs3)CC2=O)cc1 (stereo not drawn) | -2 | -1.0 | -2 | -7 | 0.7 | 13% | x | -1.9 |
| O=C(Cn1ncc2c(=O)oc3ccccc3c21)N1CCC(N2CCCCC2)CC1 | 2 | -4.7 | -5 | -6 | 0.8 | 1% | -1.4 | -1.1 |
| CCOC(=O)c1ccc(NC(=O)Cn2nnc3ccccc32)cc1 | -13 | 4.1 | 11 | x | 1.2 | 20% | x | x |
| COc1ccc(-c2cc(C)no2)cc1S(=O)(=O)N1CC(=O)Nc2ccccc21 | -6 | 2.6 | -8 | 10 | -0.6 | 7% | -1.8 | -0.4 |
| Cc1ccccc1NC(=O)CN1CCOCC1 | 2 | -0.8 | -6 | 0 | 1.9 | x | -0.8 | 0.1 |
| CC(C)(C(=O)O)c1ccc(C(O)CCCN2CCC(C(O)(c3ccccc3)c3ccccc3)CC2)cc1 (stereo not drawn) | x | -5.8 | -6 | -11 | -0.5 | x | -7.8 | -1.4 |
| COc1ccc(C(NC(C)=O)c2c(O)ccc3ccccc23)cc1OC (stereo not drawn) | 27 | -0.7 | -10 | -11 | 0.3 | x | x | 0.2 |
| O=S(=O)(Nc1ccccc1)c1cccc2nonc12 | x | 3.6 | 1 | -5 | 0.6 | x | 2.8 | x |
| CN(C(=O)COC(=O)CCC(=O)c1ccccc1)c1c(N)n(Cc2ccccc2)c(=O)[nH]c1=O | -15 | -0.2 | x | -10 | 1.2 | 0% | 6.0 | 2.1 |

Of the compounds above, 7 have an NH in an aromatic ring:
| SMILES | Calb FLC | LANA-H2A inh | Beta cell apopt | T cruzi inh | A1 inh | Vif TR-FRET | AF4-AF9 inh | RanGTP-Imp inh |
| --- | --- | --- | --- | --- | --- | --- | --- | --- |
| CCOC(=O)c1[nH]c2ccc(Cl)cc2c1NC(=O)c1nonc1C | -5 | -6.1 | -7 | 12 | 0.7 | u | x | 5.5 |
| Cc1ccc2[nH]c3c(c2c1)CN(C(=O)CN1CCCCC1)CC3 | -6 | 1.5 | -8 | 16 | 0.2 | -10% | 4.2 | -14 |
| S=c1[nH]nc(-c2ccc3ccccc3n2)n1-c1ccccc1 | 0 | -3.6 | 1 | -8 | 0.1 | x | -9.8 | -0.2 |
| COc1ccc(C2C(C#N)=C(N)Oc3n[nH]c(C)c32)cc1CN1CCN(c2ccc(F)cc2)CC1 (stereo not drawn) | -13 | -1.3 | -4 | 13 | -0.1 | 3%&-8% | x | 5.4 |
| COc1ccc(CCNC(=O)[C@H](C)N2C(=O)N3CCc4c([nH]c5ccccc45)[C@@]3(C)C2=O)cc1 | -1 | -5.9 | -3 | 62* | -0.3 | x | -0.4 | 3.0 |
| O=C(OCCOc1ccccc1)c1n[nH]c2ccccc12 | -1 | 16 | 1 | -16 | -0.1 | 29% | 8.9 | 0.3 |
| CN(C(=O)COC(=O)CCC(=O)c1ccccc1)c1c(N)n(Cc2ccccc2)c(=O)[nH]c1=O | -15 | -0.2 | x | -10 | 1.2 | 0% | 6.0 | 2.1 |
